Screens (PubChem)
PABP FP inh: blocks human PABP binding to poly(A) RNA | fluorescence polarization | inhibition, % at 35 µM | 290,000 compounds, 1% hits;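 active = 50% or more with normal probe brightness, or confirmed in later tests; inconclusive = above 50% with abnormal brightness, or retests that disagree; inactive = below 50% or failed in later tests; about a fifth of its hits are not listed in these tables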;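 also: calls also rest on retests at 20 µM and on dose response follow-up; controls were probe without protein and protein plus probe with vehicle; some compounds called inactive have numbers as strong as hits; many hits fall short of the cut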
Target sequence (P11940 whole entry, looked up): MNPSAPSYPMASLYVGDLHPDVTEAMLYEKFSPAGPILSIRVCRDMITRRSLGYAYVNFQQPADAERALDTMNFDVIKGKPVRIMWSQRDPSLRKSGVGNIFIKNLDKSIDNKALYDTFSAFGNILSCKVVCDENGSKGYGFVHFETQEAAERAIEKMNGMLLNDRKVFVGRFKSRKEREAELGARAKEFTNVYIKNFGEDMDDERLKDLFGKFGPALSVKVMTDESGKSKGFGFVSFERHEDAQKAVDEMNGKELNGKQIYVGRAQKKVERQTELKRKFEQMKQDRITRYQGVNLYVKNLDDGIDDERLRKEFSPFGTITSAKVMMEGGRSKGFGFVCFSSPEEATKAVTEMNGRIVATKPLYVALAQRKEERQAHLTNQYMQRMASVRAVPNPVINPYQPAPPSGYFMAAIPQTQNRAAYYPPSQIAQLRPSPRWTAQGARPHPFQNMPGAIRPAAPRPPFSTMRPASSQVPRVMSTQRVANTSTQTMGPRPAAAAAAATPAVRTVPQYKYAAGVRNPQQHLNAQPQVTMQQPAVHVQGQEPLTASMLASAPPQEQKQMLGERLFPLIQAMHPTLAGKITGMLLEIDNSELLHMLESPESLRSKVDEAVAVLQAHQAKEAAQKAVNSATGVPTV
Yeast UUG start: yeast start codon fidelity modulation | S. cerevisiae UUG-firefly luciferase reporter, luminescence/redox ratio | activity score, % at 18.7 µM | 350,000 compounds, 0.13% hits;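 active = replicate mean at a twofold rise or more, about +100% in these data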;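 also: firefly luciferase made from a UUG start codon reports start codon fidelity; reporter light over untreated wells divided by growth signal over untreated wells; some hits fall short of that in this replicate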
Env fusion inh: blocks HIV Env-driven cell-cell fusion. HeLa-JRFL Env/CEM21 cell fusion, luciferase. inhibition, % at 12.3 µM. 360,000 compounds, 1.1% hits;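 active = mean replicate inhibition score of at least 50 and every replicate individually at or above 50; inconclusive = only one of the two criteria met; inactive = mean below 50 and not all replicates reaching 50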;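 also: 0% = plate neutral controls and 100% = maraviroc near 300 nM; one replicate is shown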
Rce1 inhib: blocks yeast Ras-converting enzyme. yeast membranes, quenched prenylated peptide cleavage fluorescence. 290,000 compounds, 0.27% hits. calls only. AID 2563. Q03530;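 active = fall in fluorescence gain of 50% or more versus controls, with final raw signal at or below 3038400; inconclusive = same 50% fall but final raw signal above 3038400; inactive = fall in fluorescence gain under 50%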;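 also: plate controls were neutral control wells for no effect and wells lacking membranes for full effect; tested at 10 µM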
Target sequence (Q03530 whole entry, looked up): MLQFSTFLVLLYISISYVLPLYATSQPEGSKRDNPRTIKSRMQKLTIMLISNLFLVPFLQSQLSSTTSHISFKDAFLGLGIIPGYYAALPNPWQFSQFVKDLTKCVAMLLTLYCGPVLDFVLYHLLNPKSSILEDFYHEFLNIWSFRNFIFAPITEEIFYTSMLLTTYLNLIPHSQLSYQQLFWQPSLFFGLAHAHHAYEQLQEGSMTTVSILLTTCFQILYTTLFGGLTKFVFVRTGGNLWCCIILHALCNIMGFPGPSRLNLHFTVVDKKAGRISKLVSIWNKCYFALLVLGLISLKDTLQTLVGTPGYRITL
MT1-MMP act inh: inhibitors of human MT1-MMP activation; AID 651647; HT1080 RFP-PRO-GFP cells, GFP/RFP ratio fluorescence, overnight; percent of plate control window, DMSO zero; GFP/RFP ratio change, % at 20 µM; 360,000 compounds, 0.061% hits;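 active = GFP/RFP ratio change of at least 30% with cell ATP level not reduced by more than half and red fluorescence within 50% of control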; also: strong numbers were not always called active
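Assay system: HT1080 cells carrying an RFP-PRO-GFP reporter | Dosing: Single dose of 20 µM compound, 1% DMSO final | Incubation: Cells overnight before dosing, compound overnight, 37 °C, 5% CO2 | Evaluation: GFP/RFP fluorescence ratio | Control set: DMSO and RFP-L50D-GFP cell wells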
eIF4H FP inh: inhibitors of RNA binding by human eIF4H; eIF4H fluorescence polarization binding assay; Q15056; inhibition, % at 35 µM; 290,000 compounds, 0.94% hits;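 active = 50% or more with normal probe brightness, or confirmed in later tests; inconclusive = above 50% with abnormal brightness, or retests that disagree; inactive = below 50% or failed in later tests; about a fifth of its hits are not listed in these tables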;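 also: calls also rest on retests at 20 µM and on dose response follow-up; 0% = protein and probe with vehicle and 100% = probe without protein; strong numbers were not always called active; many hits fall short of the cut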
CSC inhib: blocks cancer stem cells; inhibition, % at 7.5 µM; 300,000 compounds, 1.1% hits; cancer stem cell-like cells viability, luminescence; AID 2717;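 active = mean at 75% or more and at least half the replicates too; inconclusive = mean and replicates disagree; tested in HMLE shEcad cells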;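 also: 0% = median of negative and 100% = median of positive control wells; the first replicate is given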
eIF4H FP inh retest: also measured in eIF4H FP inh; calls as there; inhibition, %; compound at 20 µM; confirmation average;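 mean of two retest wells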
PABP FP inh retest: also measured in PABP FP inh; calls as there; inhibition, %; compound at 20 µM; confirmation repeats;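 mean of two retest wells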
MT1-MMP act inh RFP: recorded beside MT1-MMP act inh, whose call it bears; RFP signal change, %; measured here: RFP expression control read;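 0 = vehicle wells; hits needed this value within 50% of zero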
* hit, by the source's call; i = inactive; ? = inconclusive; . = no result given. Outcome played no part in choosing rows, and some 3% of all compounds hit somewhere here.

SMILES	PABP FP inh	Yeast UUG start	Env fusion inh	Rce1 inhib	MT1-MMP act inh	MT1-MMP act inh RFP	eIF4H FP inh	CSC inhib	others
Cc1cc(O)c(/C=N/Nc2ccc(Cl)cc2)c(=O)o1	5	.	.	i	-8	3	5	3
Cc1[nH]c2ccccc2c1C(c1ccccn1)c1c(C)[nH]c2ccccc12	61*	1	-7	i	2	7	55*	-7
COc1ccccc1-c1cnc(C(O)c2cccc(C)c2C)[nH]1 (configuration not stated)	.	-13	-3	.	1	0	.	.
CCCOC(=O)c1ccc(NC(=O)c2cc(=O)[nH]c3ccccc23)cc1	-2	.	-19	i	0	-2	-8	-12
O=C(c1ccc2nccnc2c1)N1CCCC(N2CCN(c3ccc(F)cc3)CC2)C1 (configuration not stated)	4	-2	2	i	0	-2	-1	12
Cc1ccc(/C=N/NC(=O)CSc2nc3ccccc3c(=O)n2-c2ccccc2C)s1	6	.	.	i	-1	-11	-4	.
CCc1cccc(C)c1Nc1nc2ccccc2n2cnnc12	14	-2	0	i	4	-11	5	-22
CSC1=C(C#N)C(c2ccc(C)cc2)C2=C(CCCC2=O)N1 (configuration not stated)	4	4	.	i	3	5	-4	1
Cc1cccc(NC(=O)c2cc(NC(=O)C3CCCCC3C(=O)O)ccc2N2CCCCC2)c1 (configuration not stated)	-3	21	-45	.	1	-3	-4	5
COc1ccc(NC(=O)CSc2nnnn2C)cc1	9	.	0	i	1	4	2	10
CC(C)[C@H](NC(=O)[C@H](Cc1ccccc1)n1c(=O)[nH]c2ccccc2c1=O)C(=O)N[C@@H](Cc1ccccc1)C(=O)O	15	7	.	i	0	4	1	-11
CNC(=O)c1ccsc1NC(=O)c1ccc(Cl)s1	2	-7	-31	i	0	2	4	7
CCN(CC(=O)Nc1ccc2c(c1)OCCO2)Cc1cc(=O)n2ccsc2n1	-7	.	1	i	-2	4	-12	-2
CCN(CC)C1CCN(C(=O)CCc2nnc(CCCCc3ccccc3)o2)C1 (configuration not stated)	-5	.	8	i	-3	-1	1	-7
CCC(NS(=O)(=O)c1ccc(C)cc1)C(=O)N1CCN(c2ccccn2)CC1 (configuration not stated)	7	11	1	i	7	6	-3	-13
Cc1ccnc(NC(=O)c2ccc(Cl)c([N+](=O)[O-])c2)c1	-4	-5	-9	i	-6	-12	-5	0
Cc1ccccc1C(=O)NC1CCN(CC(=O)NCc2ccc(F)cc2)CC1	2	.	-1	i	6	4	-5	-1
COC(=O)c1ccccc1C(=O)N1CCCC(CCC(=O)NCc2ccc(F)c(F)c2)C1 (configuration not stated)	1	1	7	.	-5	2	-7	-9
CC(=O)N1CCc2cc(S(=O)(=O)NCCC(=O)NCCc3ccccc3)ccc21	0	4	.	i	-7	1	-1	-6
O=C(Nc1ccc(Cl)c(C(F)(F)F)c1)[C@@H]1CC=C[C@@H]2CCN(Cc3ccccc3)C(=O)[C@@H]21	.	-17	64*	i	2	-4	.	1

Part of the list above in order of length of the SMILES, low to high:
SMILES	PABP FP inh	Yeast UUG start	Env fusion inh	Rce1 inhib	MT1-MMP act inh	MT1-MMP act inh RFP	eIF4H FP inh	CSC inhib	others
CNC(=O)c1ccsc1NC(=O)c1ccc(Cl)s1	2	-7	-31	i	0	2	4	7
CCc1cccc(C)c1Nc1nc2ccccc2n2cnnc12	14	-2	0	i	4	-11	5	-22
CCCOC(=O)c1ccc(NC(=O)c2cc(=O)[nH]c3ccccc23)cc1	-2	.	-19	i	0	-2	-8	-12
CCC(NS(=O)(=O)c1ccc(C)cc1)C(=O)N1CCN(c2ccccn2)CC1 (configuration not stated)	7	11	1	i	7	6	-3	-13
COC(=O)c1ccccc1C(=O)N1CCCC(CCC(=O)NCc2ccc(F)c(F)c2)C1 (configuration not stated)	1	1	7	.	-5	2	-7	-9

(more compounds)
SMILES	PABP FP inh	Yeast UUG start	Env fusion inh	Rce1 inhib	MT1-MMP act inh	MT1-MMP act inh RFP	eIF4H FP inh	CSC inhib	others
COc1ccc(/C=C2\SC(=O)N(CCNC(=O)C3=COCCO3)C2=O)cc1	.	-13	-68	i	-7	-15	.	-16
O=C(Nc1ccc2oc(=O)ccc2c1)c1ccc(-c2ccc(Cl)cc2)o1	-8	.	-14	i	9	-4	-6	-10
CCCCN(C)C1=CC2=CC(=C(C#N)C#N)CCC2CC1 (configuration not stated)	-13	.	0	i	-62	31	?	3
CCOc1ccc(NC(=S)NN2C(C)CCCC2C)cc1 (configuration not stated)	7	-29	-8	i	-6	2	6	-6
CC[C@]1(C(=O)OC)[C@H]2C(=O)N(C)C(=O)[C@H]2[C@H]2CN=C(SCc3ccc(C#N)cc3)N21	.	1	6	.	7	7	.	.
Cc1ccc(NC(=O)c2ccc(F)cc2F)cc1	.	-40	-180	i	-2	3	.	10
Cc1ccc(CSc2ncnc3c2cnn3Cc2ccccc2)cc1C	-2	-20	?	i	-3	4	-4	21
O=C1NCCCC1C(=O)N/N=C/c1ccc(Cl)cc1 (configuration not stated)	1	.	15	i	-2	4	-14	-3
CCCOC(=O)/C(=C\c1ccc([N+](=O)[O-])o1)NC(=O)c1ccccc1	-12	-2	27	i	-15	2	45	0
COc1ccccc1-n1cnnc1SC1CCOC1=O (configuration not stated)	-1	-4	.	i	4	2	3	-4
Cc1sc(-n2c(C)cc(/C=C3\SC(=S)NC3=O)c2C)c(C#N)c1C	-3	-18	-50	i	-79	-4	36	79*
Cc1cc(S(=O)(=O)NC2CCCCC2)ccc1OCC(=O)NCC1CCCO1 (configuration not stated)	-7	-2	6	i	-3	0	-2	-10
CN(C)C1CCN(C(=O)c2cccc(OC3CCN(S(=O)(=O)N(C)C)CC3)c2)C1 (configuration not stated)	-9	-23	1	i	0	-1	-6	-6
S=c1[nH]nc([C@@H]2C[C@H]2c2ccccc2)n1-c1ccccc1	-4	-19	-30	i	-6	-3	-10	-9
CCN(CC)S(=O)(=O)c1ccc(NC(=O)CCC2CCCCC2)cc1	0	3	-47	i	-11	-4	-14	19
O=c1cc(NCc2ccco2)[nH]c(=O)n1-c1ccc(Br)cc1	-2	1	-30	i	-15	0	66	.	eIF4H FP inh retest=18;PABP FP inh retest=47
O=C(Nc1cccc(S(=O)(=O)N2CCCCC2)c1)c1ccc2c(c1)OCO2	-13	-3	32	i	-4	-11	-3	2
CC/C(=N\NC(=S)Nc1ccc(OC)cc1)c1ccc(OC(F)F)cc1	4	.	-33	i	0	-6	-6	32
C[C@H](NC(=O)c1ccccc1Cl)C(=O)OCc1cn2cc(Cl)ccc2n1	.	-16	-14	.	-10	-1	.	3
COc1ccc(S(=O)(=O)N2CCN(C(=O)NCc3ccc(OC)c(OC)c3)CC2)cc1	-8	-12	13	i	5	5	-9	-9
CC1CCCC(C)N1CCCNC(=O)C1CCCN(c2ncnc3c2nc2n3CCCCC2)C1 (configuration not stated)	8	-3	-6	i	-2	2	5	12
COCCNC(=O)C12CC3CC(C1)CC(c1ccccc1)(C3)C2	2	.	8	i	-3	-3	8	-15
Cc1nnc(-c2cnn(C)c2N)n1Cc1ccc2c(c1)OCO2	-4	.	20	i	-1	-1	2	.
COC(=O)c1ccccc1NC(=O)CN1C(=O)c2ccccc2C1=O	.	-4	-1	i	-2	7	.	-3
Cc1cccc(N2CCN(C(=O)c3cc(S(=O)(=O)N4CCOCC4)cn3C)CC2)c1C	-13	1	-11	i	-1	-1	-16	-6
c1ccc2c(CCNc3ncnc4nc[nH]c34)c[nH]c2c1	-11	-26	-59	i	-9	-24	-16	42
COCCN1C2=C(C(=O)CC(C)(C)C2)C(c2ccc(OC)c(OC)c2)C2=C1CC(C)(C)CC2=O	13	1	18	i	1	-1	-2	-12
O=C(O)Cc1cn(Cc2cccc(Cl)c2)c2ccccc12	-5	.	2	i	0	-3	-4	1
O=C(OCc1cc2ccccc2[nH]c1=O)c1ccncc1	2	.	.	i	1	0	8	9
O=C(CCn1c(=S)oc2ccccc21)Nc1cc([N+](=O)[O-])ccc1F	4	-14	4	i	1	0	8	-6
CC[C@@]12C(=O)N(c3cccc(C)c3)C(=O)N1[C@H](c1ccc(OC)cc1)[C@@H]1C(=O)N(C(C)(C)C)C(=O)[C@@H]12	-17	-12	.	i	6	2	-11	-9
O=C(O)CCCC(=O)Nc1cccc(C(=O)Nc2ccccc2C(=O)O)c1	20	-22	-1	i	2	6	-6	-4
O=C1CSC(=Nc2cccc([N+](=O)[O-])c2)N1	3	-13	-21	i	-2	1	0	-12
Cc1sc2nc(CSCC(=O)N(CCC#N)c3ccccc3F)[nH]c(=O)c2c1C	.	-7	7	.	-4	-4	.	.
COc1ccc(S(=O)(=O)N2CCOCC2)cc1NC(=O)CN1CCCCCC1	-13	-9	-8	i	2	3	1	6
O=C1/C(=C\c2ccc(O)c(O)c2)N=C2CCCCCN12	2	-21	1	i	0	-3	42	26
Cc1nnc(NC(=O)c2cccc(F)c2)s1	-1	-18	.	i	-4	-2	-1	-7
CCOC(=O)n1c(=O)n(C)c2ccc(Br)cc21	-6	-5	30	i	-3	1	1	5
COC(=O)C(Cc1cnc(Cl)s1)(C(=O)OC)c1ccccc1[N+](=O)[O-]	-4	-8	13	i	1	-4	0	-23
C=CCNc1ncnc2c1ncn2[C@H]1CN(C2CCCC2)C[C@@H](CO)O1	.	-7	-20	.	3	3	.	.
CCCN=C1N(C)C[C@@H]2[C@@H]3C(=O)N(C)C(=O)[C@@H]3[C@](Cc3ccccc3)(C(=O)OC)N12	.	-10	1	.	-1	-2	.	.
COc1cc(C)c(CNc2cccc(C)c2)cc1C	42	.	.	i	-3	-2	1	-6
Cc1cc(C)n2nc(C(=O)Nc3nccs3)nc2n1	20	-31	-32	i	3	7	-6	-10
OC(c1ccccc1)c1nc(-c2ccccc2)cs1 (configuration not stated)	.	4	-23	.	1	0	.	.
Cc1ccc(CNc2ccc(CNc3ncn[nH]3)cc2)cc1	4	-14	-9	i	-2	-7	4	4
COc1ccc(OC)c(S(=O)(=O)NC2CCCCC2)c1	1	-14	.	i	8	3	-5	.
Cc1cc(C)c(S(=O)(=O)/N=C2/C=C(SCC(=O)O)C(=O)c3ccccc32)cc1C	-4	.	.	.	-3	13	-2	.
Cc1cc(C)c(S(=O)(=O)Nc2ccccc2C(=O)N2CCOCC2)c(C)c1	10	0	2	i	-2	1	-9	6
CN(C(=O)/C=C/c1ccc2c(c1)OCO2)c1ccccc1	-9	-16	-6	i	-3	5	-3	7
Cc1cc(C)nc(NC(=NCCc2c[nH]c3ccccc23)NC(=O)C(C)(C)C)n1	-5	-11	27	i	3	-6	-1	4
CC(C)(C)NC(=S)NCCc1ccccc1	5	-16	-13	i	2	0	-4	7
Cc1ccc(C)c(S(=O)(=O)N2CCN(C(=O)Cn3[nH]c(=O)c4ccccc4c3=O)CC2)c1	.	-10	-18	i	0	-4	.	-3
CCOC(=O)c1sc(NC(=O)Cn2nnc3sc4c(c3c2=O)CCC(C(C)(C)C)C4)nc1C (configuration not stated)	10	-12	.	i	-12	1	-5	17
N#Cc1ccccc1Cn1c(=O)n(C2CCCC2)c(=O)c2ccccc21	-12	3	?	i	-3	-10	-7	-17
S=C1NC(c2ccccc2)=NCN1c1ccccc1	0	0	-65	i	-5	2	-5	1
NC(c1csc(Nc2cc(Oc3ccccc3)ncn2)n1)C1CCCCC1 (configuration not stated)	.	-12	30	.	-9	-10	.	.
O=C(CCCN=C1NS(=O)(=O)c2ccccc21)OCC(=O)c1ccccc1	.	-2	-3	i	-3	3	.	-3
